CDC25B-CDK2 inh – human CDC25B-CDK2/CyclinA binding inhibition. P30305+P24941. HTRF CDC25B-CDK2/CyclinA binding, anti-His/anti-Flag; hits give high values. z-score (test concentration not listed). 94,000 compounds, 0.72% hits;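 also: score is relative to mean and SD of negative controls; strong numbers were not always called active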
TAR Tat displ – HIV-1 TAR-Tat binding disruption; HIV-1 TAR RNA, Tat peptide displacement FRET; hits give high values; 100,000 compounds, 0.6% hits; z-score (test concentration not listed);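 also: score is relative to mean and SD of negative controls; some compounds called inactive have numbers as strong as hits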
* = called active by the depositor.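 The calls were made as follows: active = z-score from 3 up in half or more of its runs; inactive = the rest.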 Compounds were not picked by outcome. About 0.9% of those tested had a hit in this group.

CN1C(=O)Cc2cc(S(=O)(=O)NCc3ccccc3Cl)ccc21 was read as TAR Tat displ 0.81.
Cc1ccc(NCc2c(CO)cnc(C)c2O)cc1 was read as TAR Tat displ 0.68.
Screening CCN(CC)CC(=O)N1c2ccccc2Sc2ccc(Cl)cc21 returned CDC25B-CDK2 inh -0.89 and TAR Tat displ 0.66.
`CC(C)NC(=O)c1cc2c(s1)-c1ccccc1S(=O)(=O)C2` gave CDC25B-CDK2 inh -0.09 and TAR Tat displ 1.1.
c1ccc(-c2ccc(-c3cnc(-c4ccccc4)o3)cc2)cc1 was read as CDC25B-CDK2 inh -0.33 and TAR Tat displ 0.08.
COc1cccn(Cc2nnc(SCC(=O)c3ccccc3)o2)c1=O was read as CDC25B-CDK2 inh 0.23.
Screening c1cc(-c2noc(C3CCCCC3)n2)ccn1 returned CDC25B-CDK2 inh 0.56 and TAR Tat displ 0.05.
O=C(CC(=O)N1CCOCC1)Nc1ccc2nc3n(c(=O)c2c1)CCCCC3 was read as CDC25B-CDK2 inh -1.3.
`O=[N+]([O-])c1ccc(/C=N\Nc2nc(-c3ccccc3)c3cc(Cl)ccc3n2)o1` gave CDC25B-CDK2 inh -2.3.
For CCOC(=O)c1noc2ncnc(N3CCN(Cc4ccc5c(c4)OCO5)CC3)c12 the results were TAR Tat displ -0.04.
For CN(C)c1ccc(C(CNS(=O)(=O)c2ccc(Br)cc2)N2CCCC2)cc1 (configuration not stated) the results were TAR Tat displ -0.86.
Screening COCCN1C(=O)C(=O)/C(=C(/O)c2ccccc2)C1c1ccc(F)cc1 (configuration not stated) returned CDC25B-CDK2 inh -0.59 and TAR Tat displ 1.8.
`CCOC(=O)c1ccc(Oc2ncnc3sc(C)cc23)cc1` gave TAR Tat displ -3.2.
`O=C1c2ccccc2C(=O)N1CC1COc2ccccc2O1` (configuration not stated) gave CDC25B-CDK2 inh 0.51.
Screening NC(=O)c1c(NC(=O)c2cc3n(n2)C(C(F)(F)F)CC(c2ccco2)N3)sc2c1CCC2 (configuration not stated) returned CDC25B-CDK2 inh 0.11.
For Cc1cc(C)c(-c2c(N3CCCCC3C)c(=O)c2=O)cc1C (configuration not stated) the results were TAR Tat displ -0.48.
O=C(Cn1cnc2onc(-c3ccc(F)cc3)c2c1=O)N1CCC(N2CCCCC2)CC1 was read as TAR Tat displ 0.
For O=C(CCc1nnc2ccc(N3CCOCC3)nn12)Nc1cccnc1 the results were TAR Tat displ 1.
For O=C(NCCN1CCCc2ccccc21)C1CCN(c2cnc3ccccc3n2)CC1 the results were CDC25B-CDK2 inh -0.85 and TAR Tat displ 0.51.
`CC(C)c1cc(C(=O)Nc2ccc(Cl)cc2)nn1C1CCS(=O)(=O)C1` (configuration not stated) gave CDC25B-CDK2 inh -0.43 and TAR Tat displ 0.34.
For N=C1C(c2nc3ccccc3[nH]2)=C(O)CN1c1ccc(F)c(Cl)c1 the results were CDC25B-CDK2 inh 3.9 and TAR Tat displ 0.68.
For Cc1oc2ncnc(N3CCCCC3)c2c1C(=O)NCCC(C)C the results were TAR Tat displ 2.
Screening CC(C)CNc1nc(N)c([N+](=O)[O-])c(Nc2ccccc2F)n1 returned TAR Tat displ 0.5.
`O=C(Cn1c(=O)c2cccn2c2ccc(F)cc21)N1CCc2ccccc2C1` gave TAR Tat displ 2.
Screening CCn1c(C(=O)OC)cc2oc(C)cc21 returned CDC25B-CDK2 inh -0.04 and TAR Tat displ 0.52.
Cc1ccc(C2NC(=O)c3c(sc4c3CCN(C)C4)N2)o1 (configuration not stated) was read as CDC25B-CDK2 inh 2.3 and TAR Tat displ -4.9.
COc1ccc(CN2C(=O)c3oc4ccc(Cl)cc4c(=O)c3C2c2ccc(O)cc2)cc1 (configuration not stated) was read as CDC25B-CDK2 inh 1.1 and TAR Tat displ -0.31.
O=C(OC(c1ccco1)c1nccc2ccccc12)c1ccccc1 (configuration not stated) was read as CDC25B-CDK2 inh 6 and TAR Tat displ -7.3.
Screening N=C(N)SCc1c(F)cccc1Cl returned CDC25B-CDK2 inh 0.05.
`NC(=O)C1CCN(C(=O)CSc2ncccn2)CC1` gave CDC25B-CDK2 inh 3.5 and TAR Tat displ 0.22.
Cc1occc1-c1nnc(SCC(=O)NCC2CCCO2)o1 (configuration not stated) was read as CDC25B-CDK2 inh -1.1 and TAR Tat displ 1.6.
Screening Cc1cc2n(n1)CCCN2C(=O)Nc1ccc(Br)cc1F returned TAR Tat displ 1.4.
Cc1c2cnn(-c3ccccc3)c(=O)c2c(C)n1CC(=O)Nc1ccccc1Br was read as CDC25B-CDK2 inh -2.9 and TAR Tat displ 2.9.
For COc1cc(OC)c(NC(=O)COCc2cc(-c3cccs3)on2)cc1Cl the results were TAR Tat displ 0.45.
For O=C(Nc1c(C(=O)N2CCOCC2)oc2ccccc12)C1CCCC1 the results were TAR Tat displ 1.2.
O=C(NCCNC(=O)Nc1ccc(Cl)cc1)Nc1ccc(Cl)cc1 was read as CDC25B-CDK2 inh -2 and TAR Tat displ 2.1.
`Cn1c(C(=O)N2CCCC(C(=O)NCc3ccc(F)cc3)C2)cc2sccc21` (configuration not stated) gave CDC25B-CDK2 inh -0.99.
CCn1nc(C)c(CCNC(=O)NCc2ccco2)c1C was read as TAR Tat displ -0.34.
`CCOc1ccc(NS(=O)(=O)c2ccc3c(c2)S(=O)(=O)N=C(C)N3)cc1` gave TAR Tat displ -3.2.
O=C(C[n+]1ccccc1)c1c(F)cccc1F was read as CDC25B-CDK2 inh -5.6.
For COc1ccc(-c2[nH]nc3nc(-c4cc(Cl)ccc4O)cc(C(=O)O)c23)cc1 the results were TAR Tat displ 3.8.
`O=C1c2[nH]nc(-c3ccccc3O)c2C(c2cccc(Br)c2)N1CCO` (configuration not stated) gave CDC25B-CDK2 inh -2.3 and TAR Tat displ 2.
For CC(C)(C)N(CCNS(=O)(=O)c1ccc2c(c1)CCCC(=O)N2)Cc1ccco1 the results were TAR Tat displ -0.61.
Cc1nc2nc(NC(=O)C3CCCCC3)nn2c(C)c1Cl was read as CDC25B-CDK2 inh -0.18 and TAR Tat displ -0.22.
Screening COc1cccc(N2C(=O)CC(Sc3nnc(C)s3)C2=O)c1 (configuration not stated) returned CDC25B-CDK2 inh -1.1 and TAR Tat displ 1.2.
Cc1cccc(OCc2nn3c(-c4ccncc4)nnc3s2)c1 was read as CDC25B-CDK2 inh 0 and TAR Tat displ -0.74.
`O=C1CC(c2ccc(C(F)(F)F)cc2)CC(=O)N1Cc1ccco1` gave CDC25B-CDK2 inh -1.3.
For Cc1ccc(S(=O)(=O)NC(=O)N2CCCCC2)cc1 the results were CDC25B-CDK2 inh -1.1.
Screening COC(=O)C1C(c2cccc(F)c2)c2c([nH][nH]c2=O)CC1(C)O (configuration not stated) returned CDC25B-CDK2 inh -0.82 and TAR Tat displ 1.2.
For C=CCNC(=O)c1cccc(NC(=O)C2=CSCCO2)c1 the results were TAR Tat displ 1.
`Fc1ccccc1N1CCN(c2ncc3c(n2)CCN(Cc2cccc(F)c2F)C3)CC1` gave TAR Tat displ 1.8.
For O=C1c2cccnc2C(=O)N1Cc1ccc(S(=O)(=O)NCc2ccco2)s1 the results were TAR Tat displ 0.56.
`CCOCCOC(=O)C1=C(C)NC2=C(C(=O)CCC2)C1c1ccc(-c2ccccc2)cc1` (configuration not stated) gave CDC25B-CDK2 inh -2.5 and TAR Tat displ 2.8.
Screening O=C1CCSc2ccc(S(=O)(=O)NCCN3CCCC3)cc2N1 returned TAR Tat displ 2.4.
Screening Cc1cc(NCCN(C)C)n2nc(C(F)(F)F)c(-c3ccc(Cl)cc3)c2n1 returned CDC25B-CDK2 inh 0.34 and TAR Tat displ 1.2.
For CN1CCN(CCCNC(=O)c2cnc3sc(N4CCOCC4)nn3c2=O)CC1 the results were TAR Tat displ 0.74.
Screening CCCn1nnc(NCc2ccc(Cl)cc2)n1 returned TAR Tat displ 1.7.
Screening N#Cc1c(NC(=O)c2ccccc2Cl)sc2c1CCCCC2 returned CDC25B-CDK2 inh -1.3 and TAR Tat displ 1.8.
`Cn1nc(C(=O)Nc2ccccc2Cl)c2c1-c1ccccc1OC2` gave CDC25B-CDK2 inh -1 and TAR Tat displ 0.51.
`CCOc1ccc(CCNc2nc3ccccc3n3c(C)nnc23)cc1OCC` gave CDC25B-CDK2 inh -0.98 and TAR Tat displ 1.4.
`N#C/C(=C\c1cccs1)C(=O)N1CCCC1` gave CDC25B-CDK2 inh -0.57.
CCOc1ccc(-c2noc(-c3cccs3)n2)cc1OC was read as CDC25B-CDK2 inh -1.9 and TAR Tat displ 1.8.
CC1CCc2c(cnc3c(C(=O)NC4CCCC(C)C4C)cnn23)C1 (configuration not stated) was read as TAR Tat displ -1.9.
CCOC(=O)C1=C(c2ccccc2)NC(SCC(=O)c2ccc(F)cc2)=C(C#N)C1c1ccco1 (configuration not stated) was read as CDC25B-CDK2 inh 1.6 and TAR Tat displ -3.5.
`COCCCNc1nc(SCc2ccccc2)nc2sc3c(c12)CC(C)(C)OC3` gave CDC25B-CDK2 inh -1.4 and TAR Tat displ -2.4.
CC(C)Cn1cc(NC(=O)NCCN2CCC(C)CC2)c2ccccc2c1=O was read as TAR Tat displ -1.
`COc1cc2nc(NCc3cccnc3)n3nc(-c4ccccc4)nc3c2cc1OC` gave CDC25B-CDK2 inh -0.89 and TAR Tat displ -0.79.
For COc1ccc(-n2c(SCc3cc(=O)n4cc(Cl)ccc4n3)nc3ccsc3c2=O)cc1 the results were CDC25B-CDK2 inh -2.
`CCOC(=O)c1c(C)nc2c(c1-c1ccc(Cl)cc1Cl)C(=O)CC(C)(C)C2` gave CDC25B-CDK2 inh -0.97.
`C=CCc1ccccc1OCCSc1nc(-c2cccs2)nc2cc(=O)[nH]n12` gave TAR Tat displ 1.3.
Screening NNC(=O)c1ccc(Oc2cccc(C(F)(F)F)c2)nc1 returned CDC25B-CDK2 inh 0.6.
`O=C(NCCCN1CCCCC1)c1cc2ccc3cccnc3c2[nH]1` gave TAR Tat displ -0.54.
Screening Clc1ccc(-c2nc(N3CCOCC3)c3ccccc3n2)cc1 returned CDC25B-CDK2 inh -0.34 and TAR Tat displ 1.6.
Cc1[nH]ncc1CNC(=O)C1=Cc2cc(Br)ccc2OC1 was read as TAR Tat displ 1.4.
`Cc1ccc(NS(=O)(=O)c2c(C)nc3scc(C)n3c2=O)cc1Cl` gave CDC25B-CDK2 inh -1.4 and TAR Tat displ 0.07.
Screening CCN(CC)C(=O)CSc1nnc(-c2ccc(Br)cc2)o1 returned CDC25B-CDK2 inh -3.3 and TAR Tat displ -0.59.
For Cc1[nH]nc(-c2ccc(S(=O)(=O)Nc3ccc4c(c3)OCCO4)s2)c1C the results were TAR Tat displ -0.38.
CCSc1nnc(NC(=O)c2nn(-c3ccc(C)cc3)ccc2=O)s1 was read as CDC25B-CDK2 inh 0.64 and TAR Tat displ 1.6.
Screening OCc1cccc2cccc(Br)c12 returned CDC25B-CDK2 inh -1.3.
For N#CC1=C(N)OC2=C(C(=O)CC(c3ccccc3)C2)C1c1ccccc1F (configuration not stated) the results were CDC25B-CDK2 inh -1.2.

Random excerpt: seven records from the list
`C=CCc1ccccc1OCCSc1nc(-c2cccs2)nc2cc(=O)[nH]n12` gave TAR Tat displ 1.3.
Screening COC(=O)C1C(c2cccc(F)c2)c2c([nH][nH]c2=O)CC1(C)O (configuration not stated) returned CDC25B-CDK2 inh -0.82 and TAR Tat displ 1.2.
For Cc1oc2ncnc(N3CCCCC3)c2c1C(=O)NCCC(C)C the results were TAR Tat displ 2.
O=C(CC(=O)N1CCOCC1)Nc1ccc2nc3n(c(=O)c2c1)CCCCC3 was read as CDC25B-CDK2 inh -1.3.
For Cc1ccc(S(=O)(=O)NC(=O)N2CCCCC2)cc1 the results were CDC25B-CDK2 inh -1.1.
CCSc1nnc(NC(=O)c2nn(-c3ccc(C)cc3)ccc2=O)s1 was read as CDC25B-CDK2 inh 0.64 and TAR Tat displ 1.6.
For COc1cc(OC)c(NC(=O)COCc2cc(-c3cccs3)on2)cc1Cl the results were TAR Tat displ 0.45.

The main list resumes; the 6 compounds before the break are reprinted first.
`Cc1ccc(NS(=O)(=O)c2c(C)nc3scc(C)n3c2=O)cc1Cl` gave CDC25B-CDK2 inh -1.4 and TAR Tat displ 0.07.
Screening CCN(CC)C(=O)CSc1nnc(-c2ccc(Br)cc2)o1 returned CDC25B-CDK2 inh -3.3 and TAR Tat displ -0.59.
For Cc1[nH]nc(-c2ccc(S(=O)(=O)Nc3ccc4c(c3)OCCO4)s2)c1C the results were TAR Tat displ -0.38.
CCSc1nnc(NC(=O)c2nn(-c3ccc(C)cc3)ccc2=O)s1 was read as CDC25B-CDK2 inh 0.64 and TAR Tat displ 1.6.
Screening OCc1cccc2cccc(Br)c12 returned CDC25B-CDK2 inh -1.3.
For N#CC1=C(N)OC2=C(C(=O)CC(c3ccccc3)C2)C1c1ccccc1F (configuration not stated) the results were CDC25B-CDK2 inh -1.2.
Screening C/C(=N\Nc1nc(-c2ccccc2)cs1)c1ccc(C)nc1 returned CDC25B-CDK2 inh 0.14.
`CC(C)CCNC(=O)C1c2c(n(C)c3ccccc23)SCC(=O)N1Cc1ccco1` (configuration not stated) gave TAR Tat displ 0.03.
For Cc1ccc(S(=O)(=O)N(CC(O)Cn2c3ccccc3c3ccccc32)CC2CCCO2)cc1 (configuration not stated) the results were CDC25B-CDK2 inh -8.3.
Screening CC(=O)SCC(Cc1ccccc1)C(=O)NCC(=O)OCc1ccccc1 (configuration not stated) returned TAR Tat displ 0.38.
`O=C(CSCCS(=O)(=O)c1ccccc1)N/N=C/c1ccsc1` gave CDC25B-CDK2 inh -1.4.
Screening C#CCn1c(COc2cccc(OC)c2)nc2ccccc21 returned CDC25B-CDK2 inh -1.1 and TAR Tat displ 1.5.
For O=C(NCc1nnnn1-c1ccccc1)C1CC(=O)N(c2ccc(F)cc2)C1 (configuration not stated) the results were TAR Tat displ 0.59.
Screening CC(=O)N1c2ccc(S(=O)(=O)N(C)CC(=O)N3CCC(C)CC3)cc2CC1C (configuration not stated) returned TAR Tat displ 0.03.
`CCCCC(=O)Nc1nnc(SCc2cc(=O)n3nc(C4CC4)sc3n2)s1` gave TAR Tat displ 1.3.
